Compound activity as filed in PubChem.
Vif TR-FRET: inhibitors of Vif binding to APOBEC3G peptide, primary screen, biochemical, TR-FRET, GST-Vif 1-94, biotin-A3G peptide, dose response retest (AID 1117319) | TR-FRET GST-Vif / biotin-A3G peptide binding; higher % means a stronger effect; test concentration not given here; strong numbers were not always called active | inhibition, %, or IC50 in µM where a hit was titrated | hit rate 0.57% among 260,000;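 active = above the screen mean plus three standard deviations and confirmed in dose response; inconclusive = results disagree or hit not tested in dose response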;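 also: Vif residues 1-94 fused to GST binding biotinylated APOBEC3G peptide 110-148; 0% = full assay without inhibitor and 100% = GST in place of GST-Vif; retest series ran down from 100 µM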
RanGTP-Imp inh: inhibitors of RanGTP-importin-beta interaction, primary screen, biochemical, FRET, CFP-Ran, YFP-importin-beta, homogeneous; cell-free CFP-Ran/YFP-importin-beta FRET ratio; inhibition, % (concentration not given with the values); hit rate 1.1% among 300,000; AID 2216;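 active = most replicates above 15%; inconclusive = exactly half above 15%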;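 also: 0% = DMSO wells and 100% = Ran loaded with GDP instead of GTP; wells of about 40 µL received 100 nL stock; the first replicate is given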
HNF4A DNA FP: change in binding of human HNF4 alpha to DNA. AID 1224865. hit rate 0.3% among 360,000. activity change, % at 10 µM. P41235. HNF4a-FITC DNA binding, fluorescence polarization, 1 h; in the data active = activity change above about 30%, passing the limit was not always enough;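 also: controls were the assay level and a saturating level of protein; the project sought stronger binding though the title names inhibitors; some compounds called inactive have numbers as strong as hits; positive values seem to mean higher polarization but the record does not say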
UCH37 inh: human UCH37 deubiquitinating enzyme inhibition. purified proteasome/UCH37, Ub-AMC cleavage fluorescence. inhibition, % (concentration not given with the values). hit rate 0.33% among 330,000;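 active = mean of two replicates above 20%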;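 also: 0% = compound-free wells with enzyme and 100% = wells lacking proteasome; stock transfer was 100 nL into about 20 µL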
Target sequence (Q9Y5K5 whole entry, looked up): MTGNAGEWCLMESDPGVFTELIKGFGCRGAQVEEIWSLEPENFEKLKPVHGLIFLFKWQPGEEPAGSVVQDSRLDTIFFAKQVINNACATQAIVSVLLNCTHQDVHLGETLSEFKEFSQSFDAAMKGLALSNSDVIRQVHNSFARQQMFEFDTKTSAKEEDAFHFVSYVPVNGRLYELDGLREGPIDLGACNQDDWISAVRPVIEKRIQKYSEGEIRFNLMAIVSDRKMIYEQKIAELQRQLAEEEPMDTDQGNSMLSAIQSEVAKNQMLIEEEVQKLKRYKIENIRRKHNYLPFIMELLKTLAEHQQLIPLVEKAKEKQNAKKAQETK
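System: Proteasome-associated human UCH37 deubiquitinase; Input: 0.15 nM proteasome in added enzyme buffer; Also added: Ub-AMC substrate from 1 µM stock; Incubation: 30 min compound-proteasome preincubation then 25 min substrate reaction, room temperature; Detection: fluorescence, ex 355 nm, em 460 nm; Read-out: % inhibition of Ub-AMC cleavage fluorescence; Benchmarks: no-proteasome and no-compound wells.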
E coli growth: E. coli growth inhibition. Escherichia coli growth, OD600, 23 h; stronger effect = lower value. OD600 absorbance (no concentration beside the values). hit rate 0.21% among 330,000;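 active = OD600 absorbance below the run mean of sample wells minus 3.6 SD, in any replicate, cut at about 0.56 in these data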;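 also: stock transfer was 300 nL into about 60 µL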
AF4-AF9 inh: blocks AF4 peptide binding to human AF9. P42568. AlphaScreen, biotin-AF4 peptide binding to FLAG-AF9. inhibition, % at 10 µM. hit rate 0.47% among 350,000. AID 651704;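 active = every replicate reaching a set inhibition limit, whatever the replicate mean, cut at about 25% in these data; inconclusive = mean inhibition reaches that limit but some replicates miss it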;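 also: 0% = plate neutral control median and 100% = total signal loss; the record names both 10 and 1 µM as test concentration; the first replicate is given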
Target sequence (P42568 whole entry, looked up): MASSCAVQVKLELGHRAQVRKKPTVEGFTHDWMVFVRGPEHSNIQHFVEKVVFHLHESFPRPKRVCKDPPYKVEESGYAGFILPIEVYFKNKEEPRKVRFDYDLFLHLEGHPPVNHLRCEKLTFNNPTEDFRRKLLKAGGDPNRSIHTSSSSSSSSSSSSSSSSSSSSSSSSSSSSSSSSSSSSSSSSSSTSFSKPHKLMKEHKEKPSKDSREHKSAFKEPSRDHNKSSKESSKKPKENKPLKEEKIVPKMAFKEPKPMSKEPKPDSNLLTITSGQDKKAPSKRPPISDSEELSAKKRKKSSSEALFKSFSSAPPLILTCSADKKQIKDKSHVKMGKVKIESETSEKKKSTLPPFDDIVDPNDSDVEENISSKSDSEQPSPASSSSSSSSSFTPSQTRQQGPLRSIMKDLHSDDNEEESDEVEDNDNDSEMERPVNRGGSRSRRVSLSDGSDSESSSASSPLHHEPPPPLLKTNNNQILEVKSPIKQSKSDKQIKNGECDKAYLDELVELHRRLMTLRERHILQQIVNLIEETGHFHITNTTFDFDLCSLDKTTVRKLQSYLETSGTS
FGF22 binding: binders of recombinant human FGF22 by thermal shift; calls only at 9.99 µM; SYPRO orange fluorescence; percent of sucrose octasulfate shift, DMSO zero; hit rate 1.5% among 340,000; AID 651658;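 active = melting point raised past a set limit in the mean and every replicate; inconclusive = no clear call; three in four hits are not shown here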
Target sequence (Q9HCT0 whole entry, looked up): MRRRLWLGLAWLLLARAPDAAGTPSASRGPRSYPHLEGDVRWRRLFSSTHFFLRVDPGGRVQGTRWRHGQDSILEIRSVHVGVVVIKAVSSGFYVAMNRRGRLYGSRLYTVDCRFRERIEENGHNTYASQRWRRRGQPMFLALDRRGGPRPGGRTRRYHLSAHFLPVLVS
Active calls of the source: *; i = inactive; ? = inconclusive; . = no result given; & = joins results of further samples.

Structure,E coli growth,Vif TR-FRET,AF4-AF9 inh,FGF22 binding,RanGTP-Imp inh,UCH37 inh,HNF4A DNA FP
Cc1ccc(-c2cc(C(=O)NCc3ccco3)c3ccccc3n2)s1,0.756,7.0%,.,.,-0.7,-394.3,-0.6
O=C(c1cc(-c2ccccc2)nc2ccccc12)N1N=C(C(F)F)CC1(O)C(F)F (stereo unspecified),0.655,8.7%,-57.2,i,0.6,3.2,-2.9
OC[C@@H]1CN(Cc2ccc(-c3ccccc3)cc2)C[C@H](n2cnc3c(NC4CCCC4)ncnc32)O1,.,.,1.5,i,.,.,3.0
COc1ccc(C(CNC(=O)c2cccc(NS(=O)(=O)c3ccc(C)c(F)c3)c2)N2CCCC2)cc1 (stereo unspecified),0.692,1.1%,14.7,i,-1.0,1.7,6.0
COc1ccc(NC(=O)NC2CCCCCCC2)cc1OC,0.66,.,1.5,i,-0.8,1.2,2.1
CCC(=O)Nc1ccc(S(=O)(=O)Nc2c(C)nc3nc[nH]n3c2=O)cc1,0.683,.,0.5,i,-0.6,4.3,-0.4
CC(=O)Nc1cccc(NC(=O)C2CCCO2)c1 (stereo unspecified),.,2.4%,-0.4,i,.,.,4.0
C#CCn1cc(/C=N/NC(=O)c2cc3ccccc3o2)c2ccccc21,.,.,-4.2,i,.,.,3.2
CCCc1nc2c(nnn2Cc2ccccc2)c(=O)[nH]1,0.666,4.5%,3.4,i,1.9,3.3,-0.5
Cc1cccc2c1ncc1c(=O)n(-c3ccccc3)[nH]c12,0.677,.,-11.0,i,-2.2,1.2,0.6
NS(=O)(=O)c1ccc(NC(=S)N2CCN(Cc3ccc4c(c3)OCO4)CC2)cc1,0.704,-0.7%,-4.1,i,-3.3,3.4,-0.5
Cc1ccsc1C(=O)N(C)CC(=O)N(CC(C)C)c1c(N)n(CC(C)C)c(=O)[nH]c1=O,0.68,1.5%,-0.5,i,3.6,3.6,-0.6
Cc1ccc(S(=O)(=O)Nc2ccccc2O)cc1,.,.,2.8,i,.,.,6.8
Cc1ccc(Cl)c2c1NC(=O)C2=O,.,.,3.5,i,.,2.6,0.5
CCCNC(=O)c1cc(C2CCCN(C(=O)c3ccccc3)C2)on1 (stereo unspecified),.,.,1.0,i,.,.,-2.5
C[C@H](CO)N1C[C@H](C)[C@H](CN(C)C(=O)Nc2cccc(Oc3ccccn3)c2)OCc2cnnn2CCCC1=O,.,-7.8%,-0.7&0.1&0.7,i,.,.,-0.2
O=C(Cn1cc(S(=O)(=O)Cc2ccccc2)c2ccccc21)Nc1ccccc1,.,-1.5%,.,.,-2.4,.,3.8
Cc1ccc(C(=O)Cn2cncn2)cc1,0.704,.,0.9,i,0.2,0.5,1.1
O=C(NC1CCCc2ccccc21)C1CCN(S(=O)(=O)c2cccc3nonc23)CC1 (stereo unspecified),0.749,-0.8%,.,.,-1.7,6.2,-1.5
CCc1ccc(-c2nc(CS(=O)CC(=O)NC3CCCCCC3)c(C)o2)cc1 (stereo unspecified),0.683,.,0.9,i,3.7,3.7,3.4
COc1ccccc1NC(=O)COC(=O)C1CCN(/C=C/C(=O)C(F)(F)F)CC1,0.634,-1.9%,-14.5,i,0.6,7.2,-4.8
COc1ccc(OC)c(C2C(C(=O)O)c3ccccc3C(=O)N2C)c1 (stereo unspecified),0.707,-3.5%,.,.,-2.2,0.5,-0.8
Cc1ccccc1C(=O)Nc1ccc(N(C)C)c2ccccc12,0.727,-6.1%,6.7,i,0.1,2.5,-2.9
Cc1cccc(NC(=O)C2=C(O)c3ccccc3N(C)S2(=O)=O)c1,0.693,6.1%,.,.,-2.4,8.7,-0.1
COc1ccc(OC)c(C(=O)NC(CC(N)=O)c2ccc(NCCN3CCOCC3)c([N+](=O)[O-])c2)c1 (stereo unspecified),0.647,.,.,i,-2.2,1.4,-0.4
COc1ccc(/C=C/C(=O)OCC(=O)N2CCN(S(=O)(=O)c3ccc(C)cc3C)CC2)cc1OC,0.705,.,6.3,i,.,-45.8,4.9
CC(=O)c1sc(NC(=O)C2COc3ccccc3O2)nc1C (stereo unspecified),0.687,-19.8%,1.6,i,-2.7,3.6,-1.9
COc1ccc(-c2noc(CCC(=O)NC3CCCCC3)n2)cc1OC,0.68,-11.7%,.,.,-1.6,-0.3,0.2
CCc1ccc(S(=O)(=O)Nc2cccc(C3OCCCO3)c2)cc1,0.661,-2.3%,-1.7,i,-4.2,1.3,1.2
O=C(CN1CCc2ccccc2C1)Nc1cc(S(=O)(=O)N2CCOCC2)ccc1N1CCCC1,0.692,-0.3%,11.4,i,10.4,0.5,2.6
NC(=O)CC1NC(=O)c2cc([N+](=O)[O-])cc(I)c2OCCC(C(N)=O)NC(=O)[C@@H]2CCCN2C1=O (stereo partly specified),.,5.0%,?,i,.,0.4,.
COC(=O)C1(c2ccccc2)NC(c2ccc(O)cc2)C2C(=O)N(c3ccc4c(c3)OCO4)C(=O)C21 (stereo unspecified),0.676,10.5%,1.9,i,-0.7,4.3,3.0
COC(=O)c1c[nH]c(=S)n1Cc1ccccc1,0.677,5.0%,0.4,.,.,1.7,2.1
COc1ccc(CCNC(=O)c2nn(C)c3c2CS(=O)(=O)c2ccccc2-3)c(OC)c1,0.7,1.9%,-0.6,i,11.0,1.8,4.5
Cc1cccc(CN2CCSCC2)c1,0.718,.,2.8,i,-0.7,2.1,-0.3
CC(=O)Cn1ncc(N2CCOCC2)c(Cl)c1=O,0.675,4.2%,2.2,i,2.3,2.4,-1.8
CCCNC(=O)Cn1c(=O)/c(=C\c2ccc(-c3ccc([N+](=O)[O-])cc3)o2)s/c1=C\C(=O)C(C)(C)C,.,-3.2%,.,.,-90.7,.,135.1
O=C(O)CCC1(C(=O)O)OCCc2ccccc21 (stereo unspecified),0.711,-1.1%,4.4,i,6.1,-0.2,-1.3
CCCN1C(=O)/C(=C/c2cc(C)n(C)c2C)SC1=Nc1ccc(OCC)cc1,.,5.6%,.,.,-2.4,-0.6,-0.2
Cc1cccc(OC(C)C(=O)Nc2cc(S(=O)(=O)N3CCCCC3)ccc2C)c1 (stereo unspecified),0.668,.,-2.6,i,.,-0.6,-0.5
Cc1ncc([N+](=O)[O-])n1CCOC(=O)c1cc(Cl)cc(Cl)c1N,0.695,31.0%,.,.,-2.6,-18.3,-7.4
CCOC(=O)c1c(NS(=O)(=O)c2cccc(OC)c2)sc2c1CCC2,0.694,?,.,.,-28.9,2.9,-4.0
Cc1ccc(S(=O)(=O)N2CCOCC2)cc1C(=O)N1CCN(S(=O)(=O)c2cccc(F)c2)CC1,0.669,-5.7%,-0.9,i,.,1.2,3.4
CCOC(=O)Cc1csc(NC(=O)CCC(=O)O)n1,0.675,-6.3%,-4.7,i,2.8,3.3,4.2
Cc1ccc(CCNC(=O)C2CCCN(c3ncnc4c3nc3n4CCCCC3)C2)cc1 (stereo unspecified),0.693,-4.3%,-3.0,i,-1.7,6.0,4.5
Cc1ccc(C(=O)Nc2ccccc2C(=O)NCc2ccco2)cc1,.,1.3%,2.3,i,.,.,4.1
C#Cc1cccc(NC(=O)c2ccc(Cl)cc2Cl)c1,0.599,-3.4%,-2.1,i,-3.3,2.2,0.0
CCCCN(CC)Cc1ccc(CNC(=O)Nc2ccccc2)o1,0.714,4.8%,3.9,i,3.3,0.3,-0.4
CCSc1nsc(NC(=O)Nc2ccccc2Cl)n1,.,.,-1.1,i,.,.,-2.2
COc1ccc(S(=O)(=O)N2CCC(NC(=O)Nc3ccc(C)cc3)CC2)cc1,0.668,4.4%,.,.,-0.1,1.8,0.6

New compounds follow.
Structure,E coli growth,Vif TR-FRET,AF4-AF9 inh,FGF22 binding,RanGTP-Imp inh,UCH37 inh,HNF4A DNA FP
CCN(CC)Cc1ccccn1,0.645,.,1.1,i,-3.1,5.6,10.7
CCOc1cc(C(C(=O)NCC2CCCO2)N(C(=O)Cn2nnc3ccccc32)c2ccc(NC(C)=O)cc2)ccc1O (stereo unspecified),0.677,.,-1.1,i,-1.3,0.4,0.2
C/C(=N\OCc1ccccc1C#N)c1cc2ccccc2o1,.,6.2%,-0.1,i,-1.3,.,-1.7
CCCCN(CCCC)C(=O)c1cn(CC)c2cc(N3CCN(C)CC3)c(F)cc2c1=O,0.0485*,-7.8%,-2.9,i,1.2,-78.1,-0.1
Cc1cc(C)n2c(NCc3ccccc3)c(CCc3ccccc3)nc2n1,.,.,1.0,i,.,.,-2.3
Cc1cc(NCCCn2ccnc2)n2nc(-c3ccc(Cl)cc3)cc2n1,0.662,-12.1%,11.5,i,-2.3,1.9,2.2
COc1ccc(S(=O)(=O)NCCCN2CCOCC2)cc1F,0.684,0.2%,-0.5,i,-3.3,-1.3,-1.9
Nc1[nH]c(C(=O)c2ccccc2)c(-c2ccc(Cl)c(F)c2)c1C(=O)NCCc1c[nH]c2ccccc12,.,.,-2.3,i,.,.,3.6
C/C(CC(=O)Nc1ccc(N(C)C)cc1)=N\NC(=O)c1ccccc1Cl,.,2.5%,6.8,i,.,.,0.3
Cc1ccc(OCc2cc(C(=O)N3CCC(C(O)C(C)C)CC3)no2)cc1C (stereo unspecified),0.717,.,-7.4,i,-0.5,0.8,3.6
CCN(CC)S(=O)(=O)c1ccc(C(=O)OCC(=O)N2CCOCC2)cc1,0.695,7.3%,-1.4,i,2.8,-0.9,0.2
O=C(OCC(=O)N1CCCC1)c1ccc(Cl)c([N+](=O)[O-])c1,0.652,0.8%,-0.7,i,-1.2,-0.7,1.8
Cc1ccnc(NC(=O)C2CCN(S(=O)(=O)c3ccc(Cl)c(C(F)(F)F)c3)CC2)c1,0.679,1.4%,-4.0,i,-0.5,-0.2,-1.0
CC1=C(C(=O)N2CCOCC2)CC(CC(=O)NCCc2ccccn2)C(=O)N1Cc1ccc(F)cc1 (stereo unspecified),.,0.6%,-3.5,i,.,.,-4.3
Cc1cccc(NC(=O)C2CCCN2C(=O)OCC(C)C)c1C (stereo unspecified),0.668,15.1%,.,.,2.2,1.0,10.1
COc1ccc(NS(=O)(=O)c2ccc(F)c(Cl)c2)cn1,0.629,2.7%,0.5,.,-0.7,0.9,-7.5
COCCCNC(=O)CC(C)c1ccccc1 (stereo unspecified),0.651,2.6%,.,.,1.0,1.9,1.5
O=C(CSCCO)Nc1cc(C(F)(F)F)ccc1Cl,0.669,28.6%,-2.4,i,-1.7,1.2,4.1
O=C(CCC1CCCC1)N=C1SC2CS(=O)(=O)CC2N1Cc1ccccc1 (stereo unspecified),0.658,.,-15.2,i,0.4,5.5,-4.1
N#CC1(NC(=O)COC(=O)C2CCN(S(=O)(=O)c3ccc4c(c3)OCCO4)CC2)CCCCC1,.,.,1.3,i,.,.,-1.1
CC(C)C(NS(=O)(=O)c1cccc2nsnc12)C(=O)N1CCc2ccccc2C1 (stereo unspecified),0.701,7.7%,.,.,-1.0,3.1,-1.4
CN1CCN(CC(O)COc2ccc(Cl)cc2)CC1 (stereo unspecified),0.689,2.9%,.,.,1.8,0.4,0.5
COc1ccc(CN2CCCCC2C)cc1C (stereo unspecified),0.739,4.6%,.,.,6.6,-6.1,-7.2
O=C(N/C(=C/c1ccccc1Cl)C(=O)N1CCOCC1)c1ccccc1,0.652,.,-2.2,i,.,4.2,-1.1
CCOC(=O)C1(C)CCN1C(=O)c1cc(OC)c(OC)c(OC)c1 (stereo unspecified),.,.,-1.7,i,.,.,-0.3

An excerpt. The share of hits here may be higher or lower than overall.
